# HPGD block: qHTS Assay for Inhibitors of HPGD (15-Hydroxyprostaglandin Dehydrogenase); Potency, µM, for the others: top-dose activity change, negative = inhibition, hits mostly inhibitors; purified HPGD, NADH fluorescence kinetic, PGE2 substrate; hit rate 4.3% among 150,000; active = well fitted inhibition curve with a large enough effect (not every such curve was filed as active); inconclusive = small, poorly fitted or top-dose-only effect, or another doubt; inactive = no such curve, though single readings can be large or run the other way;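 further: top concentration of the series not given in the record; plate controls included wells without enzyme; inactives centre near -10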
# Target sequence (P15428 whole entry, looked up): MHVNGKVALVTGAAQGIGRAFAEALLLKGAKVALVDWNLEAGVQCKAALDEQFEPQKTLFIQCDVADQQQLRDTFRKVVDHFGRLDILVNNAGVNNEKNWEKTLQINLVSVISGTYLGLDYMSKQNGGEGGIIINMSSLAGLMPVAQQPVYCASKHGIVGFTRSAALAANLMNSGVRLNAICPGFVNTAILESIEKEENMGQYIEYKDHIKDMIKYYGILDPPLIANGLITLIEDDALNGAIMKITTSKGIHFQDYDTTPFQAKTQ
#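 NADH formation kinetics: reaction with 30 uM PGE2 and 1 mM NAD+ (final), 20 nM enzyme, Tris-HCl pH 8 with Tween 20, after 15 min compound preincubation at room temperature. Fluorescence change, last versus first of five reads.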
# An asterisk follows results filed as active; ? = inconclusive. On the % scale 0 is the no-effect control and ±100 the full control effect; potency means the concentration at half of the fitted maximal effect. The list is partial; count on the stated rates, not on these rows.
HPGD block,SMILES
-12%,Cc1c(NC(=O)CCCCCN2C(=O)C3C4C=CC(C4)C3C2=O)c(=O)n(-c2ccccc2)n1C (stereo not drawn)
?,Cc1cc(C)c2nc(SC(C)C(=O)NCC(=O)Nc3ccc(F)c(F)c3F)cc(C)c2c1 (stereo not drawn)
-3%,O=C(Cn1ccc2ccccc2c1=O)NCCC(=O)N1CCN(c2cccc(Cl)c2)CC1
-9%,Cn1cc(Br)c(C(=O)NNC(=O)c2ccc(Br)cc2)n1
-8%,CC[C@H](C(=O)[C@H](C)[C@H](O)[C@H](C)CCc1ccc(C)c(O)c1C(=O)O)[C@H]1O[C@](CC)([C@@H]2CC[C@@](O)(CC)[C@H](C)O2)C[C@H]1C
-28%,COCC(=O)N1CCCN(c2nc3c(C)cccc3cc2C#N)CC1
-1%,CCc1ccc(CNC(=O)CCc2nc(-c3cccs3)no2)cc1
-7%,Cc1ccc(C(=O)NNc2nc3ccccc3nc2C(F)(F)F)cc1
-5%,CCN(CC)CCn1c(=S)[nH]c2cc3c(cc2c1=O)OCO3
-18%,CCCOc1ccc(NC(=O)C2CC(=O)N/C(=N/N=C(C)/C=C/c3ccc(N(C)C)cc3)S2)cc1 (stereo not drawn)
?,CN1CCN(S(=O)(=O)c2ccc3c4c(cccc24)C(=O)N3)CC1
0%,C=CCN1c2ccccc2[C@]23C[C@@H](C(=O)OC)N(C(=O)COCc4ccccc4)C2=NC(C(=O)OC)=C(C(=O)OC)[C@H]13
-8%,Cc1c2cnn(-c3ccccc3)c(=O)c2c(C)n1CCCC(=O)N1CCN(C)CC1
-5%,COc1cc(Cl)cc(NC(=O)CCN2CCN(C)CC2)c1
-16%,CC(C)(C)NC(=O)NC(=O)COC(=O)c1cc(=O)[nH]c2ccccc12
-16%,C=C(C(C)=O)C(O)c1ccc([N+](=O)[O-])cc1 (stereo not drawn)
-11%,CCCN(Cc1cc2cccc(C)c2[nH]c1=O)S(C)(=O)=O
-12%,CC(C)CN1CC2(CCN(C(=O)c3ccco3)CC2)C1
-7%,COc1cc(OC)cc(C(C)=O)c1
?,Cc1csc(NC(=O)c2cc3c(s2)-c2ccccc2OC3)n1
-11%,CCOC(=O)CSc1nnc([C@H](Cc2ccccc2)NC(=O)OC(C)(C)C)o1
-4%,CC1=C(C(N)=O)C(c2ccc3c(c2)OCO3)n2nc(-c3cccc(C)c3)nc2N1 (stereo not drawn)
-8%,CC1CCC(C(C)C)C(OC(=O)Cn2c(-c3ccc(F)cc3)[n+](C)c3ccccc32)C1 (stereo not drawn)
-15%,CC(C(=O)c1ccccc1)n1c(N2CCOCC2)nc2c1c(=O)n(C)c(=O)n2C (stereo not drawn)
-7%,COc1ccc(OC)c(S(=O)(=O)N2CCC(C(=O)Nc3cccc(C)c3)CC2)c1

# Next section, overlapping the part above by 6 compounds.
HPGD block,SMILES
?,Cc1csc(NC(=O)c2cc3c(s2)-c2ccccc2OC3)n1
-11%,CCOC(=O)CSc1nnc([C@H](Cc2ccccc2)NC(=O)OC(C)(C)C)o1
-4%,CC1=C(C(N)=O)C(c2ccc3c(c2)OCO3)n2nc(-c3cccc(C)c3)nc2N1 (stereo not drawn)
-8%,CC1CCC(C(C)C)C(OC(=O)Cn2c(-c3ccc(F)cc3)[n+](C)c3ccccc32)C1 (stereo not drawn)
-15%,CC(C(=O)c1ccccc1)n1c(N2CCOCC2)nc2c1c(=O)n(C)c(=O)n2C (stereo not drawn)
-7%,COc1ccc(OC)c(S(=O)(=O)N2CCC(C(=O)Nc3cccc(C)c3)CC2)c1
14µM*,O=C(Nc1nnc(C(F)(F)F)s1)c1ccc(N2C(=O)C3C4C=CC(C4)C3C2=O)cc1 (stereo not drawn)
-18%,C=CCn1c(COc2ccccc2)nnc1SC(C)C(=O)N/N=C/c1cc(Cl)ccc1O (stereo not drawn)
-20%,O=C(N/N=C/c1cccs1)c1cc(C2CC2)nc2ccccc12
-5%,CCOC(=O)/C=C/C(=O)Nc1ccc(S(=O)(=O)Nc2c(C)cc(C)cc2C)cc1
-13%,CCS(=O)(=O)N1Cc2ccccc2CC1C(=O)OCC(=O)Nc1ccc(C)cc1 (stereo not drawn)
-19%,COc1ccc(OC)c(S(=O)(=O)N2CCN(c3ccccn3)CC2)c1
-14%,CCC(=O)c1cc2c(cc1NC(=O)C(C)C)OCCO2
-6%,COc1ccc(C(CNC(=O)c2cccnc2SC)N2CCOCC2)cc1 (stereo not drawn)
?,CC1=CCC(C(=O)N/N=C/c2cccs2)C(c2ccc(F)cc2)C1 (stereo not drawn)
-9%,CCOc1ccc(NC2=NC(C)(C)N=C(N)N2)cc1
-1%,O=C(NCc1ccncc1)C1COc2ccccc2O1 (stereo not drawn)
-10%,COc1ccc(CC(=O)NNC(=O)c2ccc(SCc3cc(F)ccc3F)c([N+](=O)[O-])c2)cc1
-7%,CC(=O)Nc1ccc(S(=O)(=O)NC(=O)C23CC4CC(CC(C4)C2)C3)cc1
?,CCn1c(C(O)c2ccc3c(c2)OCO3)nc2ccccc21 (stereo not drawn)
-14%,CC(=O)c1cccc(NC(=O)Cc2cccs2)c1
-4%,CSc1ccc2c(c1)N(CCCN(C)C)c1ccccc1S2
-8%,C=CCn1c(C)cc(C(=O)CSc2nnc3c(Cl)cc(Cl)cn23)c1C
?,Cc1ccc2[nH]c(=O)c(CN(Cc3ccco3)S(=O)(=O)c3c(C)ccc4nsnc34)cc2c1
-8%,COc1ccc(N2CCN(CCNS(=O)(=O)c3cccc4nsnc34)CC2)cc1
-4%,COc1ccc(NC(=O)CC(C)c2ccccc2)c([N+](=O)[O-])c1 (stereo not drawn)
-10%,COc1cc(/C=C(/NC(=O)c2ccccc2Cl)C(=O)O)cc(OC)c1OC
-5%,C=CCn1c(SCC(=O)Nc2cc(OC)c(NC(=O)c3ccco3)cc2OC)nnc1-c1ccncc1
-10%,COc1ccc(CN(C(=O)c2cc3ccccc3oc2=O)C2CCCCC2)cc1OC
?,CCOC(=O)N1CCN(C(=O)CSc2nc(-c3cccc(C)c3)ns2)CC1
-11%,CN(C)S(=O)(=O)c1ccc(C(=O)Nc2ccccc2F)cc1

# 5 entries from above, arranged by the number in HPGD block, lowest first.
HPGD block,SMILES
-14%,CC(=O)c1cccc(NC(=O)Cc2cccs2)c1
-13%,CCS(=O)(=O)N1Cc2ccccc2CC1C(=O)OCC(=O)Nc1ccc(C)cc1 (stereo not drawn)
-10%,COc1ccc(CN(C(=O)c2cc3ccccc3oc2=O)C2CCCCC2)cc1OC
-8%,C=CCn1c(C)cc(C(=O)CSc2nnc3c(Cl)cc(Cl)cn23)c1C
-7%,CC(=O)Nc1ccc(S(=O)(=O)NC(=O)C23CC4CC(CC(C4)C2)C3)cc1

# More results.
HPGD block,SMILES
?,CCc1c(C)c2ccc(O)c(CN(C)C)c2oc1=O
-8%,O=C(NCC(=O)N(Cc1cccs1)C(C(=O)NC1CCCC1)c1ccco1)c1cccs1 (stereo not drawn)
-8%,CCN(CC)S(=O)(=O)c1ccc(C(=O)NCc2nnc(SCC(=O)OC)n2C)cc1
-19%,COc1ccc(OC)c(NC(=O)C(Sc2ccccc2)c2ccccc2)c1 (stereo not drawn)
-4%,COc1ccc2cc1Oc1ccc(cc1)CC1c3c(cc4c(c3Oc3cc5c(cc3OC)CCN(C)C5C2)OCO4)CCN1C (stereo not drawn)
-1%,COCCNC(=O)CN(C(=O)CCC(=O)Nc1cc(C)on1)c1ccccc1C
-12%,CCOC(=O)c1ccc(NC2c3ccccc3C(=O)N2c2ccc(C)cn2)cc1 (stereo not drawn)
-23%,CCOc1ccc(OCC)c(-c2c(=O)n(OCc3ccc(Cl)cc3)c3ccccc3[n+]2[O-])c1
-16%,CCOc1ccc(NC(=S)N2CCc3cc(OC)c(OC)cc3C2COc2ccc3c(C)cc(=O)oc3c2)cc1 (stereo not drawn)
-2%,CCc1ccc(OCc2nnc(SCC(=O)Nc3cccc(C(=O)N4CCOCC4)c3)o2)cc1
-8%,CCOc1ccc(C(=O)C[n+]2ccccc2C)cc1
-12%,Cc1c(NC(=S)NC(NC(=O)C(C)(C)C)C(Cl)(Cl)Cl)c(=O)n(-c2ccccc2)n1C (stereo not drawn)
-28%,CN(C)C(=O)c1c(-c2ccccc2)oc2ccc(O)cc12
0%,CCCn1c(=O)n(N)c2ccccc21
4%,CCC(=O)NCCc1nc2ccccc2[nH]1
-3%,CCn1c(CC(=O)Nc2ccc(C)cc2)nnc1SCC(=O)NCc1ccccc1
-19%,Cc1[nH]nc(N=CC2=C(O)CC(C)(C)CC2=O)c1-c1ccc(Cl)cc1
-7%,Cn1ncc(N=Cc2ccc([N+](=O)[O-])cc2)c1C(=O)N1CCOCC1
-7%,O=C(NCCc1ccccc1)C1CCCN(S(=O)(=O)c2cccnc2)C1 (stereo not drawn)
?,CCCN1C(=O)c2ccccc2NC1c1ccc(OC)c(CSc2ccccn2)c1 (stereo not drawn)
-9%,COc1ccc(S(=O)(=O)NCCc2csc(C)n2)cc1C
-10%,Cc1cccc(C(=O)NCc2ccc(S(N)(=O)=O)cc2)c1[N+](=O)[O-]
-28%,COc1ccc(/C=C/C(=O)Nc2cc(C)on2)cc1
?,O=C(NCCOc1ccccc1)c1cc2ccccc2o1
?,COc1ccccc1OCC(=O)Nc1ccc(S(=O)(=O)N2CCCCCC2)cc1
-10%,CC1CCCC(C)N1C(=O)Cn1cc(/C=C2/C(=O)Nc3ccccc32)c2ccccc21 (stereo not drawn)
0%,C=CCSc1nc(C)c(CC(=O)OCC(C)C)c(=O)[nH]1
0%,CCO/N=C(\C)c1c(O)cc(C(C)C)n(-c2ccccc2)c1=O
-10%,COc1ccc(OC)c(NC(=O)Cc2coc3ccc(C)cc23)c1
-16%,COc1ccc(OCCCn2cc(/C=C3/C(=N)N4C=C(C)SC4=NC3=O)c3ccccc32)cc1
-28%,O=C(COc1ccccc1)n1nc(-c2ccc(Cl)cc2)nc1NCc1ccco1
16µM*,COc1ccccc1OCCCOc1ccc([N+](=O)[O-])cc1Cl
10µM*,COc1ccc(C(=S)N(C)C)cc1OC
-22%,CC1(N2CCOCC2)CC2(O)C(=[N+]1[O-])CCc1nonc12 (stereo not drawn)
-6%,Cc1ccc(-n2nnnc2SCC(=O)NNC(=O)c2ccco2)c(C)c1
-7%,Cc1ccc(C)c(-n2nnnc2Sc2nnnn2-c2ccccc2)c1
-10%,COC(=O)CSc1nnc(-c2ccccc2OC)o1
?,CC(C)Cc1ccc(C(C)C(=O)OCC(=O)c2c[nH]c3ccccc23)cc1 (stereo not drawn)
-8%,Cn1c(=O)c2c([nH]c(=O)n2C)n(C)c1=O
-14%,Cc1cc(S(=O)(=O)N2CCN(c3c(C)cccc3C)CC2)ccc1F
-3%,CCOC(=O)c1sc(-c2ccccc2)cc1NC(=O)Nc1ccc([N+](=O)[O-])cc1
-11%,O=C(Nc1cc(Sc2ccccn2)cc([N+](=O)[O-])c1)c1ccc(Cl)cc1
-7%,CCOC(=O)N1CCN(C(=O)CSCc2ccccc2)CC1
-11%,CCCCOC(=O)NS(=O)(=O)c1sc(CC(C)C)cc1-c1ccc(Cn2c(CC)nc3c(C)cc(C)nc32)cc1
-7%,CCOC(=O)c1cnn(CCOC(=O)c2ccccc2)c1NC(=O)c1ccccc1
-4%,Cc1ccc(NC(=O)CSc2n[nH]c(C)c2[N+](=O)[O-])cc1
-3%,O=C(CSc1ncn(-c2ccccc2)n1)Nc1nc(-c2ccccc2)cs1
-21%,COc1cc(C(=O)NCC2CCCO2)ccc1OCc1c(C)noc1C (stereo not drawn)
-4%,CCCCOc1ccc(CSC2=NCCN2)cc1[N+](=O)[O-]
-15%,CC(CNC(=O)CC(C)(C)C)NC(=O)CC(C)(C)C (stereo not drawn)

# More entries.
HPGD block,SMILES
?,O=C(CSc1nnc(Cc2ccccc2)n1Cc1ccco1)NC12CC3CC(CC(C3)C1)C2
?,CCOc1ccccc1C1C(C(=O)OC)=CN(C)C=C1C(=O)OC
-24%,Cc1cc(=O)oc(C)c1C(=O)NCc1c(F)cc(F)cc1F
-4%,O=C(N/C(=C\c1cccnc1)C(=O)N1CCOCC1)c1cccc(Br)c1
-5%,Cc1nn(C/C(C#N)=N\O)c(C)[n+]1N
-1%,O=C(c1cnccn1)N1CCC2(CC1)CN(c1ccccc1)C2
-17%,COc1ccc(C(NC(=O)C(C)C)c2c(O)ccc3ccccc23)cc1OC (stereo not drawn)
-13%,O=C(NCCc1c[nH]c2ccccc12)C1CCC(Cn2c(=S)[nH]c3ccccc3c2=O)CC1 (stereo not drawn)
-2%,CC(=NC(C)C)C1=C(O)CCC1=O
-5%,N#CC1=C(N)Oc2cc3ccccc3cc2C1c1cccs1 (stereo not drawn)
-16%,O=C(NCc1ccco1)c1cccn2c(=O)c3c4c(sc3nc12)CCCC4
?,CCOC(=O)c1oc2ccccc2c1NC(=O)COc1cccc(OC)c1
?,O=C(Oc1ccc(-c2cnc3ccccc3n2)cc1)c1ccc(Br)o1
-18%,CCCCNc1ccc(S(=O)(=O)c2cccc([N+](=O)[O-])c2)cc1[N+](=O)[O-]
-12%,O=C(O)c1cc(Cl)c(Cl)cc1C(=O)N1CCCC1
-8%,CCn1c(=N)n(CC(O)c2ccco2)c2ccccc21 (stereo not drawn)
-15%,Cc1ccc(N(CC(=O)N/N=C/c2ccc(OC3CSC3)cc2)S(=O)(=O)c2ccccc2)cc1
-9%,Cc1ccnc(N2CCC(C(=O)Nc3ccc(Oc4ccccc4)cc3)CC2)n1
-14%,Cn1nccc1C(=O)N1CCN(c2ccc(F)cc2)CC1
-3%,Cc1ccc(S(=O)(=O)N2CC(O)C[C@H]2C(=O)OCC(=O)c2ccccc2)cc1 (stereo partly drawn)
-6%,Cc1ccc(NC(=O)CCNS(=O)(=O)c2ccccc2)c(C(=O)c2ccccc2)c1
-12%,N[C@@H](C(=O)O)c1ccc(P(=O)(O)O)cc1
?,CN(C(=O)c1cccc(N2C(=O)C3CC=CCC3C2=O)c1)C1CCCCC1 (stereo not drawn)
-8%,CN1CCc2nc(NC(=O)c3cccc(OC(F)F)c3)sc2C1
-19%,O=C(Nc1ccc(Cl)cn1)c1cc2ccccc2o1
